TAR Tat displ: HIV-1 TAR-Tat binding disruption; HIV-1 TAR RNA, Tat peptide displacement FRET; active compounds read high; z-score (test concentration not listed); 100,000 tested, 0.6% active;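 further: score is relative to mean and SD of negative controls; some compounds called inactive have numbers as strong as hits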
CDC25B CDK2 inh: human CDC25B-CDK2/CyclinA binding inhibition. P30305+P24941. HTRF CDC25B-CDK2/CyclinA binding, anti-His/anti-Flag; active compounds read high. z-score (test concentration not listed). 94,000 tested, 0.72% active. AID 1259370;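 further: score is relative to mean and SD of negative controls; strong numbers were not always called active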
Numbers without * were called inactive; / = not tested or not shown.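 How the source made its calls: active means z-score from 3 up in half or more of its runs; inactive means the rest.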

compound	TAR Tat displ	CDC25B CDK2 inh
CC1CCCCN1C(=O)Cn1c(=O)oc2cc(S(=O)(=O)N3CCCC3)ccc21 (configuration not stated)	1.3	-1
N#Cc1ccc(Oc2ccc(Cl)cc2)c([N+](=O)[O-])c1	/	-2.2
Cc1cc(C)c(CSCCn2c(C)ccc2C)c(C)c1	/	-0.37
CC1CCc2c(sc3nnn(CC(=O)Nc4ccc(Cl)cc4)c(=O)c23)C1 (configuration not stated)	-1.5	0.26
COc1ccc(-n2c(Cc3cccn3C)nnc2SCC(=O)NCC2CCCO2)cc1 (configuration not stated)	/	-0.14
c1ccc(CNc2nc3ccccc3n3cnnc23)cc1	-0.38	-2.1
CCOC(=O)n1c(=S)oc2ccccc21	1.8	0.34
CCC1SC2=NC(C)=C(C(=O)OC)C(c3ccc(OC(C)=O)c(OC)c3)N2C1=O (configuration not stated)	-0.36	-0.93
CCn1nc(SC)n2c(=O)c3c(nc12)-c1ccccc1CC3(C)CC (configuration not stated)	0.62	-0.66
COc1ccccc1-c1noc2ncnc(Nc3ccc4c(c3)OCO4)c12	1.1	/
O=C1COc2ccc(S(=O)(=O)N3CCN(C(=O)C4CC(=O)N(c5ccccc5)C4)CC3)cc2N1 (configuration not stated)	-0.46	/
Cc1ccc(S(=O)(=O)NCc2cn3c(C)csc3n2)cc1	0.86	1.6
CCCC(=O)Nc1ccc(OCc2cc(=O)n3ccc(C)cc3n2)cc1	1	/
O=S1(=O)CCCCN1c1ccc(S(=O)(=O)N2CCN(Cc3ccccc3)CC2)cc1	0.43	/
CCCc1nc(-n2cccc2)sc1C(=O)NC1CCCc2ccccc21 (configuration not stated)	0.03	/
O=C(CC(C[N+](=O)[O-])c1ccc(Cl)cc1)c1ccccc1 (configuration not stated)	/	-0.96
O=C(Cn1cnc2c(oc3ccccc32)c1=O)OCc1ccccc1	1.2	/
CC1CC(C)CN(CC2CCN(C(=O)Nc3cc(F)ccc3F)CC2)C1 (configuration not stated)	0.79	/
O=C(Nc1cccs1)Nc1ccccc1Cl	1.9	0.46
NS(=O)(=O)c1ccc(CCNc2nccn(-c3ccc4c(c3)OCCO4)c2=O)cc1	-0.39	/
CCCCCc1c(O)nc(SCCN2CCOCC2)n(-c2ccccc2)c1=O	1.8	3.1
COc1cccc(Cc2n[nH]c(=S)n2-c2ccc(Cl)cc2)c1	/	-1.6
O=C(O)c1cnc(-c2ccccc2)[nH]1	/	-0.08
O=C(CCCc1nnc2c(=O)n(-c3cccc(F)c3)ccn12)Nc1ccc(Br)cc1	1.5	/
Cc1ccc(C)c(NC(=O)Nc2nc3c(s2)CCCCC3)c1	1.1	/
CN(C(=O)Cn1ncc2c1-c1ccccc1OC2)c1ccc(Br)cc1	0.21	-0.12
COc1ccc(NC(=O)c2sc(=S)n(-c3ccccc3)c2N)cc1OC	1.6	/
Cc1nc2ccccn2c1-c1csc(N)n1	1.5	-1.5
Clc1ccc(-c2nn3c(-c4ccncc4)nnc3s2)cc1	-0.08	-1.1
NS(=O)(=O)c1ccc(NC(=O)CCCN2C(=O)S/C(=C/C=C/c3ccccc3)C2=O)cc1	/	2
CCc1ccc(S(=O)(=O)c2cn(C)c3cc(N4CCC(C)CC4)c(F)cc3c2=O)cc1	0.29	/
CC1(C)CC(=O)c2cc(-c3nc(-c4ccccc4)cs3)c(=O)[nH]c2C1	-0.4	-4
Cc1cc(C)c(C#N)c(SCCS(=O)(=O)Cc2ccccc2)n1	/	-14
COC(=O)c1c(NC(=O)C2=Cc3cc(Cl)ccc3OC=C2)sc2c1CCC(C)C2 (configuration not stated)	-1.4	-1.7
CC(C)CCNC(=O)c1cnn2c3c(cnc12)CCCC3	-0.49	/
CCc1cc(C2CCCN2C(=O)Cn2cc(Cl)cn2)on1 (configuration not stated)	0.47	/
CN(Cc1ccco1)S(=O)(=O)c1ccc2c(c1)CCCC(=O)N2	-0.66	/
COc1ccc(OC)c(CN2CCN(Cc3cccc4ccccc34)CC2)c1	0.43	2.4
Cn1c2c(c3cc(Br)ccc31)CCCC2=O	/	-8.1
CCOC(=O)C1CCN(Cc2cccc(NC(=O)c3cc(C)on3)c2)CC1	/	-1.1
Clc1ccc(OCOc2ccc(Cl)cc2)cc1	/	-1.9
COC(=O)C1=C(C)NC2=C(C(=O)CCC2)C1c1ccc(OCc2ccc(F)cc2)c(OC)c1 (configuration not stated)	1.1	/
O=c1c(-c2ccccc2)c(N2CCN(Cc3ccccc3)CC2)c1=O	0.92	/
CCc1nc(-c2csc(S(=O)(=O)N3CCC(C(=O)NCc4ccco4)CC3)c2)no1	2.5	/
CCOC(=O)N1CCC(N2C(=O)c3ccccc3C2Nc2ccccc2Cl)CC1 (configuration not stated)	1.4	-0.5
O=C1CC(c2ccc(Cl)cc2)c2ccc3ccccc3c2N1 (configuration not stated)	2.5	-1.7
Clc1ccc(OCc2ccccc2)cc1	2.1	-0.8
Cc1ccc(S(=O)(=O)Nc2c(C)nc3nc(C)[nH]n3c2=O)cc1	0.01	-1.9
COc1ccc(Cl)cc1N1CC(O)=C(c2nc3ccccc3n2C)C1=N	0.34	-0.23
CCCN1CCN(C(=O)CCC(=O)N2Cc3cccn3-c3ccccc32)CC1	0.8	/

7 consecutive compounds already listed, for reference:
compound	TAR Tat displ	CDC25B CDK2 inh
Cc1cc(C)c(CSCCn2c(C)ccc2C)c(C)c1	/	-0.37
CC1CCc2c(sc3nnn(CC(=O)Nc4ccc(Cl)cc4)c(=O)c23)C1 (configuration not stated)	-1.5	0.26
COc1ccc(-n2c(Cc3cccn3C)nnc2SCC(=O)NCC2CCCO2)cc1 (configuration not stated)	/	-0.14
c1ccc(CNc2nc3ccccc3n3cnnc23)cc1	-0.38	-2.1
CCOC(=O)n1c(=S)oc2ccccc21	1.8	0.34
CCC1SC2=NC(C)=C(C(=O)OC)C(c3ccc(OC(C)=O)c(OC)c3)N2C1=O (configuration not stated)	-0.36	-0.93
CCn1nc(SC)n2c(=O)c3c(nc12)-c1ccccc1CC3(C)CC (configuration not stated)	0.62	-0.66

The list goes on:
compound	TAR Tat displ	CDC25B CDK2 inh
Brc1ccc2c(c1)CN(Cc1ccc3c(c1)OCO3)CO2	/	1.8
Cn1c(Cn2c(=O)sc3ccccc32)nnc1SCc1ccccc1F	/	-0.24
CC1(C)CC(=O)C(C(C2=C(O)CC(C)(C)CC2=O)c2cc(Br)ccc2O)C(=O)C1 (configuration not stated)	-0.7	-1.7
CCOC(=O)c1c(C)oc2ccc(OC(=O)c3ccc(C)cc3)cc12	1.7	-0.38
CCOC(=O)c1cn[nH]c1S(=O)(=O)N1CCC(C)CC1	1.3	/
CCSc1ccc(-c2noc(-c3cccc(C(F)(F)F)c3)n2)cn1	/	-1.5
COc1cc(NC(=O)C(=O)NCCN(C)C)c(OC)cc1Cl	1.6	-0.44
O=C(OCc1cc(=O)n2ccsc2n1)c1ccc2c(c1)OCO2	0.03	/
CN(C)CCCn1c(=O)[nH]c(=O)c2c1ncn2C	-0.77	-1.8
Oc1ccccc1-c1cc(-c2cccs2)[nH]n1	/	-0.45
Cc1cc(-c2nnc(SC3CCOC3=O)o2)no1 (configuration not stated)	1	-0.27
CCOc1ccc(Nc2ccc3cc(S(=O)(=O)N4CCC(C)CC4)ccc3n2)cc1	2.5	/
Cn1c(SCc2nc(-c3ccc(Cl)cc3)no2)nnc1-c1ccncc1	2.6	-1.9
Cc1cc(C)n2nc(C)c(-c3ccccc3)c2n1	/	-1.8
O=c1nc2c(-c3ccccc3)n[nH]n2c2ccc(Cl)cc12	-0.62	-1.7
CCN(CC)Cc1nc2c(c(=O)[nH]1)C1(CCCC1)Cc1ccccc1-2	/	-2.1
COCCNc1oc(/C=C/c2cccc(OC)c2)nc1C#N	-0.73	-1.8
Cc1nc(N2CCCC2)cc(N2CCN(C(=O)Nc3cccc(Cl)c3)CC2)n1	0.03	-0.46
CCCCC(=O)N1c2ccccc2NC2=C(C(=O)CCC2)C1c1cccs1 (configuration not stated)	0.17	-1.5
CCSC1=N/C(=C\c2ccc(OC(C)=O)c(OC(C)=O)c2)C(=O)S1	-1.3	-1.8
CC(C)c1ccc(N2CC(C(=O)O)CC2=O)cc1 (configuration not stated)	1.7	-0.07
O=C1CCCN1CCCNc1nc2ccccc2n2nnnc12	-1.3	-0.71
Cn1ncc2c(Nc3ccc(F)cc3)nc(NCCc3ccccc3)nc21	-0.32	/
COC(=O)c1sc2ccccc2c1S(=O)(=O)Nc1cccc(OC)c1	0.58	/
Cc1ccc(-c2onc(C)c2C)cc1S(=O)(=O)N1CCCCC1C (configuration not stated)	0.42	/

Sorted by formula weight (rising): part of the list above
compound	TAR Tat displ	CDC25B CDK2 inh
COCCNc1oc(/C=C/c2cccc(OC)c2)nc1C#N	-0.73	-1.8
COC(=O)c1sc2ccccc2c1S(=O)(=O)Nc1cccc(OC)c1	0.58	/
CC1(C)CC(=O)C(C(C2=C(O)CC(C)(C)CC2=O)c2cc(Br)ccc2O)C(=O)C1 (configuration not stated)	-0.7	-1.7

(list continues)
compound	TAR Tat displ	CDC25B CDK2 inh
Cc1ccc(C2SCCN2S(=O)(=O)c2ccc(Br)cc2)cc1 (configuration not stated)	-0.53	0.02
CCSc1ncc2c(=O)n(C(C)C(=O)N3CCCc4ccccc43)cnc2n1 (configuration not stated)	1.1	/
Cc1ccc(-c2ccccc2)n1-c1cccc2cccnc12	-1.6	-2.5
CC1CCc2nn(CC(=O)Nc3c(F)cc(F)cc3Br)cc2C1 (configuration not stated)	-0.77	-0.52
O=c1[nH]nc(N2CCCCC2)c(=O)[nH]1	-0.33	0.66
Cc1occc1-c1nnc(SCC(=O)N2CCN(c3ccccc3)CC2)o1	0.03	-0.55
Cc1ccc(N2CCN(S(=O)(=O)c3c(C)nc4sccn4c3=O)CC2C)cc1 (configuration not stated)	2.9	/
Cn1cc(C(=O)NC2CCCCC2)c(=O)c2cc(S(=O)(=O)N3CCOCC3)ccc21	/	0.22
Cc1ccc(-n2nc(C)c3c(C)cc(=O)oc32)cc1C	-0.68	-2.6
Cc1c(C)c2c(c(C)c1O)CCC(C)(COc1ccc(CC3SC(=O)NC3=O)cc1)O2 (configuration not stated)	0.52	/
CCCCn1nc(NS(=O)(=O)c2ccccc2)c2cc3cc(C)ccc3nc21	0.96	1.4
CC(C)CC(=O)N1c2ccccc2NC2=C(C(=O)CCC2)C1c1ccco1 (configuration not stated)	0.07	/
COc1ccccc1NC(=O)CSc1nc2ccccc2c(=O)[nH]1	0.99	/
O=[N+]([O-])c1cccnc1NCc1ccco1	1.5	-1.4
CCCN(CCC)S(=O)(=O)c1ccc2c(c1)N(C(C)=O)CCS2	1.4	/
CC(C)(C)c1ccc(C(=O)N2CCCCC2)s1	/	-1.7
C=CCSc1nnc2c(n1)OC(c1ccc(F)cc1)N(C(C)=O)c1ccccc1-2 (configuration not stated)	0.41	-1.1
CSc1nc(N)nc(-c2cccnc2)n1	/	-3
Cc1ccc(-c2coc(-c3cccc(NS(=O)(=O)c4cccc5nsnc45)c3)n2)cc1	1.6	/
CC1=C(C(=O)Nc2ccc(Cl)cc2C(=O)NC2CCCc3ccccc32)SCCO1 (configuration not stated)	0.96	/
Cc1nc(NC(=O)c2nn(-c3ccc(Cl)cc3)ccc2=O)sc1C(=O)OCC(C)C	0.24	-0.39
CC1=C(C(=O)N2CCN(C(=O)c3ccco3)CC2)C2(CCC(C)CC2)OC1=O (configuration not stated)	/	-0.55
CCCSc1nnc(NC(=O)c2nn(-c3ccc(OC)cc3)ccc2=O)s1	-0.48	-1.9
Cc1cc(-c2ccc(C)c(S(=O)(=O)NCCCc3ccco3)c2)on1	0.99	/
CCOc1ccccc1-c1nnc(-c2ccccc2C)o1	-0.06	-2
CCCCN(CCCC)S(=O)(=O)c1ccc2c(c1)CC(C)N2C(=O)C1CC1 (configuration not stated)	1.8	/
CCNc1cc(N2CCN(Cc3ccc4c(c3)OCO4)CC2)c2noc3c2c1C(=O)c1ccccc1-3	0.58	0.12
COc1ccc(C2CC(c3cccs3)=NN2C(C)=O)cc1 (configuration not stated)	/	-0.73
O=C(O)CCCc1nc2cccnc2n1Cc1ccccc1	-6.1	/
COc1ccc(OC)c(S(=O)(=O)Nc2ccncc2)c1	/	-0.65
O=C(NC(=S)NCc1cccnc1)c1ccccc1	/	-1.3
Cc1ccc(S(=O)(=O)c2nnn3c2nc(NCc2cccs2)c2sccc23)cc1C	0.38	/
O=C1c2ccccc2C(=O)C1(Nc1ccc(F)c(Cl)c1)c1ccccc1	-0.01	/
CC(=O)N1CCC(c2nc(-c3cccs3)no2)CC1	/	-2.1
CSC1=NC(c2ccc(C)cc2)=NCN1c1ccc([N+](=O)[O-])cc1	/	-3.5
CC(C)(C)S(=O)(=O)c1cnc(-c2ccncc2)nc1N	/	-1.4
O=S(=O)(NCc1csc(-c2ccccc2)n1)c1ccc2c(c1)CCCC2	2	-4.9
CCOc1ccc(N2C(N)=NC(N)=NC2(C)C)cc1	/	0.27
CC(NS(=O)(=O)c1ccccc1)C(c1cccs1)N1CCOCC1 (configuration not stated)	/	-0.06
CC(C)Cc1cc2c(s1)SCC(=O)N2CC(=O)NC1CCCCC1	-0.15	/
Cc1ccc(C)n1-c1nnc(N2CCCC(C(=O)NCCN(C)C)C2)s1 (configuration not stated)	-0.42	-0.83
COc1ccc(-c2csc3ncnc(NCCN4CCN(C)CC4)c23)cc1	1.8	/
Cc1nc(C)c(C(=O)N2CCN(S(=O)(=O)c3ccc4c(c3)NC(=O)C(C)O4)CC2)s1 (configuration not stated)	0.21	/
CCOC(=O)C1CCCN(c2c(N3CC(C)CC(C)C3)c(=O)c2=O)C1 (configuration not stated)	0.43	-1.7

Screens from PubChem BioAssay.
